GLP-1R inv ag – GLP-1 receptor (human) inverse agonism | HEK293 GLP-1R CRE-luciferase, luminescence, 24 h; GLP-1R form is constitutively active | AID 624417 | P43220 | 410,000 tested, 1.6% active | Potency, µM (highest dose often 38.3 µM), for inactives: at the highest dose activity change, negative = inhibition, usual class: inhibitors; note: potency is the fitted concentration of half-maximal effect; % is set by controls: 0 for no effect and ±100 for the full control effect; nearly all actives have a fitted effect of over 55% in size
Target sequence (P43220 whole entry, looked up): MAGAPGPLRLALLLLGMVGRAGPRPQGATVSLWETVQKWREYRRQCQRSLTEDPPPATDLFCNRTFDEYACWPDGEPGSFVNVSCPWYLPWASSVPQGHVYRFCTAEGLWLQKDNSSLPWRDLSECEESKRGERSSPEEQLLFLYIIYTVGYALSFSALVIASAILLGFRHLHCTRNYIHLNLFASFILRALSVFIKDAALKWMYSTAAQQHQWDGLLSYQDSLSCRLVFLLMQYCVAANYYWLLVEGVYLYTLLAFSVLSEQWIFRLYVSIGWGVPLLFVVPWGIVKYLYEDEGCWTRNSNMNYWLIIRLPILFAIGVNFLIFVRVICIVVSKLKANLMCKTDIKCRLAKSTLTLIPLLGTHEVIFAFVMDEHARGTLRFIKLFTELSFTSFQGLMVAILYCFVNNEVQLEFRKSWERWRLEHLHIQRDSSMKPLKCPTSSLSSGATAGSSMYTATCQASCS
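Cells are plated, allowed 12 hours at 37 deg C, then treated with compounds for 24 hr before luciferase detection reagent is added and luminescence is read after 12 min at room temperature. The HEK293 line carries constitutively active GLP-1R with a cAMP-responsive reporter.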
Abeta rescue – compounds reversing amyloid beta toxicity in yeast. yeast expressing A-beta42, growth rescue, OD600, 48 h; response scale: 0% DMSO, 100% iron-clioquinol control. AID 1347071. Potency, µM (highest dose often 46.1 µM), inactives show at the highest dose growth rescue, most hits filed as activators. 410,000 tested, 0.063% active; note: potency is the fitted concentration of half-maximal effect; nearly all actives have a fitted effect of over 55% in size
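Growth rescue measured by 600 nm absorbance after 48 h yeast culture at 30 C with compound. Values normalized between DMSO and an equimolar ferric chloride plus clioquinol control.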
TDP-43 yeast inh – TDP-43 toxicity inhibition in yeast; TDP-43 expressing yeast growth rescue, BacTiter-Glo, 24 h; Potency, µM (doses to about 46.1 µM), inactives show at the top dose growth rescue (activation), hits mostly activators; 410,000 tested, 1.8% active; note: potency is the fitted concentration of half-maximal effect; % of control where 0% means no effect; nearly all actives have a fitted effect of over 50% in size
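Luminescence from BacTiter-Glo reports growth of TDP-43-expressing yeast after 24 hr at 30 deg C with compound. Cells were raffinose-pregrown to mid-log, then seeded in galactose medium at OD600=0.02.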
aSyn rescue – rescues yeast growth from alpha-synuclein toxicity; Yeast expressing alpha-synuclein, growth rescue, BacTiter-Glo, 24 h; Potency, µM (titrated, usually from 46.1 µM), inactives show at the highest dose growth rescue (activation), actives largely listed as activators; 370,000 tested, 0.14% active; note: potency is the fitted concentration of half-maximal effect; % of control where 0% means no effect; nearly all actives have a fitted effect of over 65% in size
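Screening used galactose-induced yeast with toxic alpha-synuclein levels, exposed to compound for 24 hr at 30 deg C. Cell growth, read with BacTiter-Glo luminescence, gave the measured signal.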
GLP1R ag – GLP-1 receptor (human) agonism. P43220. 380,000 tested, 0.007% active. Potency, µM (titrated, usually from 45.6 µM), for inactives: at the highest dose activation, usual class: activators. HEK293 GLP-1R CRE-luciferase, luminescence, 4-6 h; cells express a hypersensitive GLP-1R form; note: potency is the fitted concentration of half-maximal effect; % of control where 0% means no effect
Akt phos inh – blocks phosphorylation of Akt; Neuro2A IGF-stimulated pAkt S473 HTRF, 20 min; stronger effect = lower value; activity change, % for hits at 50 µM; 360,000 tested, 0.32% active; in the data active = activity change below about -80%; inconclusive = mostly about -51% to -80%; note: % is set by controls: 0 for no effect and ±100 for the full control effect
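Neuro2A cells in DMEM with 0.5% FBS, overnight at 37 deg C, given compound at single 50 µM final, then IGF (6 nM final) for 20 min at 37 deg C. Lysed; phospho-Akt Ser473 by HTRF after 24 h, 665/615 ratio.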
DRD3 antagonist – blocks the human D3 dopamine receptor; AID 652054; D3R cells, DiscoveRx beta-arrestin luminescence, antagonist mode; stronger effect = lower value; 360,000 tested, 2.5% active; max response, negative = inhibition, %; P35462; in the data active = max response below about -50%; inconclusive = no clear call, values can overlap the other calls; note: % is set by controls: 0 for no effect and ±100 for the full control effect; mostly tested at two doses, the higher about 12 µM
Target sequence (P35462 whole entry, looked up): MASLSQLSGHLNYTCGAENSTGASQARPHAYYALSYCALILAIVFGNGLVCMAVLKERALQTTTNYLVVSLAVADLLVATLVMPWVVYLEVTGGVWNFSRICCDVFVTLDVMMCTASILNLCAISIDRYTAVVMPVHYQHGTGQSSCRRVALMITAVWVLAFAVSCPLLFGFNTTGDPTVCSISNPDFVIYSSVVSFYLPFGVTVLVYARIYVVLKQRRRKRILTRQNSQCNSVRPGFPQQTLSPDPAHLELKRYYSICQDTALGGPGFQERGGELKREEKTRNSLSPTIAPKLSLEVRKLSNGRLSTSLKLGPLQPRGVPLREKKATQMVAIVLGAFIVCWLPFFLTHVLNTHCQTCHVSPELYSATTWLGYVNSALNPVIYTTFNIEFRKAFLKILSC
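Cells expressing the human receptor were seeded at 1500 cells/well, incubated overnight at 37 degrees C in 5% CO2, then exposed to library compounds with dopamine controls for 90 minutes at 37 degrees C before luminescent detection.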
FUS yeast rescue – rescues growth of FUS-expressing yeast; S. cerevisiae FUS-expressing, growth rescue, OD600, 24 h; Potency, µM (doses to about 76.6 µM), inactives show at the top dose growth rescue (activation), usual class: activators; 390,000 tested, 0.24% active; AID 1347120;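 note: potency is the fitted concentration of half-maximal effect; plate controls were DMSO vehicle for no effect and reference control for full effect; nearly all actives have a fitted effect of over 55% in size; some results filed as inactive show a strong effect at the top dose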
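Restored growth of FUS-toxic S. cerevisiae, read as 600 nm absorbance after 24 h at 30C in galactose medium (starting OD 0.005). Controls CP55940 and DMSO.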
* hit, by the source's call; i = inactive; ? = inconclusive; . = not tested or not shown; & = joins results of further samples; [ ] = another dose, or the depositor's remark. Unless noted, calls come from the whole dose curve; as a rule, active = well fitted curve in the direction sought with a large enough effect; inconclusive = small, poorly fitted or top-dose-only effect, or another doubt; inactive = no such curve, though single readings can be large; an effect the other way counts as inactive or inconclusive. Only part of the results is shown; rates above refer to the full screens.

| cpd | structure | GLP-1R inv ag | Abeta rescue | TDP-43 yeast inh | aSyn rescue | GLP1R ag | Akt phos inh | DRD3 antagonist | FUS yeast rescue |
| --- | --- | --- | --- | --- | --- | --- | --- | --- | --- |
| 1 | O=C(O)c1ccccc1N(Cc1ccccc1)C(=O)CO/N=C/c1ccccc1 | 3% | 6% | -22%[0.397 µM] | 9% | 0% | i | ? | 27% |
| 2 | CCC1CN(C(=O)Nc2ccc(C(=O)O)cc2)c2cc(Cl)ccc2O1 (configuration not stated) | 5% | -3% | 13µM* | . | . | . | . | 1% |
| 3 | Cc1cccc2c1NC(=O)C2(O)N1CCCC(C)C1 (configuration not stated) | 10% | 28% | 25% | 1% | 1% | i | 10 | -3% |
| 4 | C=CCn1c(C)cc(C(=O)COC(=O)c2ccc(N)c([N+](=O)[O-])c2)c1C | -2% | 0% | 28% | 0% | 0% | i | 3 | . |
| 5 | COc1cc(OC)cc(C(=O)N[C@H](C(=O)OCC(=O)c2ccc3c(c2)NC(=O)CO3)C(C)C)c1 | 0% | 2% | 9% | -1% | 3% | i | -23 | ? |
| 6 | COc1cc(C(=O)NCCc2c[nH]c3ccccc23)ccc1OCc1c(C)noc1C | ? | -14% | -3% | 1% | 1% | i | 30 | 25% |
| 7 | CCN(CC(=O)Nc1ccc(NC(C)=O)cc1)C(=O)c1ccc(S(=O)(=O)N2CCCC2)cc1 | 23% | 0% | 0% | 0% | 3% | i | -24 | . |
| 8 | Cc1ccc2cc(C(c3nnnn3Cc3ccccc3)N3CCc4ccccc43)c(=O)[nH]c2c1C (configuration not stated) | 3% | 6% | -6% | 11% | 2% | i | 3 | 40% |
| 9 | Fc1ccc(NCc2nnc(SCc3ccccc3)o2)cc1 | ? | 5% | ? | 4% | -8% | i | -17 | 11% |
| 10 | CC(=O)NS(=O)(=O)c1cccnc1Nc1cccc(Cl)c1C | 12% | 6% | 20% | -6% | -7% | i | -11 | -2% |

Shown field by field: two of the compounds above
#7 CCN(CC(=O)Nc1ccc(NC(C)=O)cc1)C(=O)c1ccc(S(=O)(=O)N2CCCC2)cc1
- GLP-1R inv ag: 23%
- Abeta rescue: 0%
- TDP-43 yeast inh: 0%
- aSyn rescue: 0%
- GLP1R ag: 3%
- Akt phos inh: i
- DRD3 antagonist: -24
- FUS yeast rescue: .

#1 O=C(O)c1ccccc1N(Cc1ccccc1)C(=O)CO/N=C/c1ccccc1
- GLP-1R inv ag: 3%
- Abeta rescue: 6%
- TDP-43 yeast inh: -22%[0.397 µM]
- aSyn rescue: 9%
- GLP1R ag: 0%
- Akt phos inh: i
- DRD3 antagonist: ?
- FUS yeast rescue: 27%

Taken from above.
Value for no. 4 in Abeta rescue: 0%
Value for no. 5 in GLP-1R inv ag: 0%
Value for no. 10 in GLP-1R inv ag: 12%
Value for no. 6 in GLP1R ag: 1%

(listing goes on)
| cpd | structure | GLP-1R inv ag | Abeta rescue | TDP-43 yeast inh | aSyn rescue | GLP1R ag | Akt phos inh | DRD3 antagonist | FUS yeast rescue |
| --- | --- | --- | --- | --- | --- | --- | --- | --- | --- |
| 11 | CC1CCN(C2(O)C(=O)Nc3ccc(Cl)cc32)CC1 (configuration not stated) | -13% | ? | ? | ? | -2% | i | 11 | 4% |
| 12 | CC(=O)N/C(=C\c1ccccc1)C(=O)OC(C)C(=O)NCc1ccccc1 (configuration not stated) | 4% | 9% | 9% | 6% | -5% | i | -10 | 2% |
| 13 | COc1ccc(NC(=O)CCNS(=O)(=O)c2ccc3c(c2)CCCC(=O)N3)cc1Cl | 1% | -21% | -12% | 14% | 8% | . | . | -5% |
| 14 | Cc1oc(-c2ccc(Cl)cc2)nc1CS(=O)CC(=O)NCCc1ccccc1 (configuration not stated) | -7% | -9% | 13% | . | . | . | . | 22% |
| 15 | COc1c(Cl)cc(Cl)cc1CNCCSc1nnnn1C | 15% | -10% | -32%[inhibitor] | . | 3% | . | . | 13% |
| 16 | CSCC[C@H](NC(=O)c1ccc(Cl)c(S(=O)(=O)N2CCCC2)c1)c1nc2ccccc2[nH]1 | -5% | -8% | -28% | 0% | 8% | . | -52* | ? |
| 17 | CCCCOC(=O)c1cc(Cl)c(O)c(OC)c1 | -10% | -4% | ? | -27% | 9% | i | 10 | 1% |
| 18 | Cc1cccc(C)c1NC(=O)c1sc(-n2nc(C)c(Cc3ccccc3)c2C)nc1C | 4% | -13% | 1% | . | . | . | . | -6% |
| 19 | O=C(NCN1CCOCC1)c1cnccn1 | 17% | 8% | -1% | -5% | 5%&-2% | i | 15 | 8% |
| 20 | CS(=O)(=O)N(CC(=O)N1CCCC1)c1ccc(Cl)c(Cl)c1 | 71%[activator] | -15% | -20% | -8% | -1% | i | -23 | 55% |

Five compounds already listed, arranged by the value under GLP1R ag, low to high.
#	Structure	GLP1R ag
12	CC(=O)N/C(=C\c1ccccc1)C(=O)OC(C)C(=O)NCc1ccccc1 (configuration not stated)	-5%
11	CC1CCN(C2(O)C(=O)Nc3ccc(Cl)cc32)CC1 (configuration not stated)	-2%
20	CS(=O)(=O)N(CC(=O)N1CCCC1)c1ccc(Cl)c(Cl)c1	-1%
13	COc1ccc(NC(=O)CCNS(=O)(=O)c2ccc3c(c2)CCCC(=O)N3)cc1Cl	8%
17	CCCCOC(=O)c1cc(Cl)c(O)c(OC)c1	9%

The listing picks up, repeating the five entries before the break.
| cpd | structure | GLP-1R inv ag | Abeta rescue | TDP-43 yeast inh | aSyn rescue | GLP1R ag | Akt phos inh | DRD3 antagonist | FUS yeast rescue |
| --- | --- | --- | --- | --- | --- | --- | --- | --- | --- |
| 16 | CSCC[C@H](NC(=O)c1ccc(Cl)c(S(=O)(=O)N2CCCC2)c1)c1nc2ccccc2[nH]1 | -5% | -8% | -28% | 0% | 8% | . | -52* | ? |
| 17 | CCCCOC(=O)c1cc(Cl)c(O)c(OC)c1 | -10% | -4% | ? | -27% | 9% | i | 10 | 1% |
| 18 | Cc1cccc(C)c1NC(=O)c1sc(-n2nc(C)c(Cc3ccccc3)c2C)nc1C | 4% | -13% | 1% | . | . | . | . | -6% |
| 19 | O=C(NCN1CCOCC1)c1cnccn1 | 17% | 8% | -1% | -5% | 5%&-2% | i | 15 | 8% |
| 20 | CS(=O)(=O)N(CC(=O)N1CCCC1)c1ccc(Cl)c(Cl)c1 | 71%[activator] | -15% | -20% | -8% | -1% | i | -23 | 55% |
| 21 | COc1ccc(-c2ccc(CNCCCSc3nnnn3C)o2)cc1Cl | -7% | -13% | 0%[9.22 µM] | . | . | . | . | -14% |
| 22 | CC(=O)Nc1ccc(NC(=O)COC(=O)Cc2cccs2)cc1 | 8% | 1% | -22% | -4% | 12% | i | 16 | 12% |
| 23 | COc1cccc(-c2nc(CS(=O)CC(=O)NC3CC3)c(C)o2)c1 (configuration not stated) | 18% | 0% | 4% | 9% | 12% | i | 10 | 8% |
| 24 | COc1ccc(/C=C/C2=Nc3ccccc3NC(C)(C)C2)cc1OC | 9% | 21% | -10% | 2% | -2% | i | -14 | 18% |
| 25 | CC1CCN(C2(O)C(=O)Nc3ccc(Br)cc32)CC1 (configuration not stated) | ? | ? | 17% | 28% | 11% | i | -7 | 6% |
| 26 | O=C(O)/C=C/C(=O)Nc1cc(F)ccc1F | 16% | ? | ? | 11% | 0% | i | 6 | -19% |
| 27 | O=C(CCS(=O)(=O)c1ccc2c(c1)NC(=O)CS2)NCc1ccccc1Cl | -5% | . | 7% | 1% | 0% | i | 15 | 29% |
| 28 | CC1CC(C)CN(CCCNC(=O)c2csc3c2CCCC3)C1 (configuration not stated) | -12% | 0% | ? | 4% | 14% | i | -10 | 16% |
| 29 | CC(C)CC(C(=O)NCc1ccc(F)cc1)N1Cc2ccccc2C1=O (configuration not stated) | -43% | 7% | 22% | . | . | . | . | 7% |
| 30 | COc1ccccc1NC(=O)C(C)OC(=O)/C(=C/c1ccccc1)NC(C)=O (configuration not stated) | -3% | -11% | -25% | -10% | -2% | i | -15 | . |
